NPYLR7 ag – activates Aedes aegypti NPYLR7 receptor; 270,000 tested, 0.15% active; HEK293T NPYLR7/Galpha15, GCaMP6s calcium fluorescence; AID 1259423; activation, % at 10 µM; in the data active means activation above about 40%;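 further: 0% = vehicle and 100% = reference agonist at the receptor; some compounds past the cut are filed as inactive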
NPYLR7 ag max-min – second read-out of NPYLR7 ag, no call of its own (marks repeat the call); activation, %; measured here: Max-Min RFU normalised activation; some inactives read as strong as hits;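 span of the calcium signal over five minutes; 0% = vehicle and 100% = native peptide agonist; compound fluorescence can raise it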
Numbers without * were called inactive; & = joins results of further samples. These rows are one share of the data, so the mix of outcomes need not match the whole.

Values in the order: NPYLR7 ag max-min, NPYLR7 ag
CNC(=O)C1CCC(Cn2c(=O)c3sccc3n(CC(=O)Nc3ccccc3C)c2=O)CC1 (stereo not drawn)
 : -8, -3
COc1cc(C=Nc2ccc(I)cc2)cc(OC)c1OC
 : 1, 3
CC(=O)c1c(C)n([O-])c2ccccc2[n+]1=O
 : -22, -16
CCc1nc2n(n1)C(=O)C(C(c1ccc(C(F)(F)F)cc1)N1CCC(O)CC1)S2 (stereo not drawn)
 : -10, -2
COc1cccc2c1OCCCN(C(=O)CC1COCCN1)C2 (stereo not drawn)
 : -6, -4
CCOCCCn1c(=NC(=O)C=CC=CSC)c(C#N)cc2c(=O)n3cccc(C)c3nc21
 : 0, 1
CCCCOc1ccc(C(=O)N(CCCCN2C(=O)c3ccccc3C2=O)c2ccc(C)cc2)cc1
 : -6, 0
Cc1ccc(F)c(N2C(=O)CSC2c2cccc(NC(=O)c3ccccc3Br)c2)c1 (stereo not drawn)
 : 5, 4
CC(C)N(Cc1nc(C(=O)N2CCN(c3ccc([N+](=O)[O-])cc3)CC2)cs1)C(=O)Nc1cccc(Cl)c1
 : 9, 3
CN(C)CCCNP1(=O)C=C(c2ccccc2)SC(c2ccccc2)=C1
 : -24, -17
Cc1cccc(C)c1NC(=O)CN(C)C(=O)NC1CCN(S(C)(=O)=O)CC1
 : 4, 6
Cc1cc2c(N3CCCCC3C)ncnc2s1 (stereo not drawn)
 : -2, 1
O=C(NCc1ccco1)c1ccc([N+](=O)[O-])cc1Cl
 : -9, -3
CCn1nnc2c(NNC(=O)OC)ncnc21
 : 9, 4
Cc1nnc(-c2ccccc2-c2ccccc2CO)s1
 : 3, 4
O=C(CCC(=O)c1ccc2c(c1)OCCO2)Nc1ccc(OC(F)(F)F)cc1
 : 1, 2
CCn1cc(NC(=O)Nc2ncccc2C)c2ccccc21
 : 4, 12
CCCN(CC(=O)N(CCc1c[nH]c2ccccc12)Cc1ccc(F)cc1)C(=O)Nc1cccc(C)c1C
 : -2, 3
Cc1nn(-c2nc(C)c(C)c(=O)[nH]2)c(C)c1CCC(=O)Nc1nc2ccccc2s1
 : 1, 10
O=C1C(Cl)=C(N2CCOCC2)C(=O)N1c1ccc(Cl)c(Cl)c1
 : 7, 22
N#Cc1c(F)cccc1N1CCC(C(=O)NCc2ccccc2)CC1
 : 2, 3
CN(C)C(CNS(=O)(=O)c1ccc(-c2ccccc2)cc1)c1ccsc1 (stereo not drawn)
 : 10, 19
COc1cccc(-n2c(-c3ccccc3)cc(C(=O)N3CCN(C(=O)c4ccc(Cl)c(Cl)c4)CC3)c2C)c1
 : 6, 0
COc1ccc(C(=O)Oc2ccccc2-c2nc3cc(C)ccn3c2NC2CCCCC2)c(OC)c1
 : -14, -1
Cc1csc(=O)n1CCC(=O)OCc1cc(=O)n2cc(Br)ccc2n1
 : 6, 0
CN(C)c1ccc(NC(=O)C2CCC2)cc1CN(Cc1ccc(F)cc1)C(=O)NC(C)(C)C
 : 2, -3
Cc1ccc(CNC(=O)C2CCN(c3ccc(S(=O)(=O)c4ccc(C)cc4)nn3)CC2)cc1
 : -8, 1
CC(c1cccnc1)N(C)Cc1ccc(-n2ccnc2)cc1 (stereo not drawn)
 : -11, -1
CN(C(=O)CN(CCOC(=O)N1CCC(n2c(=O)[nH]c3ccccc32)CC1)CC(=O)N(C)C(C)(C)Cc1ccccc1)C(C)(C)Cc1ccccc1
 : -12, -11
CCOC(=O)c1nn(-c2ccc(OC)cc2)cc1O
 : -3, -2
CCSc1nc(CC(=O)N[C@H]2CCCCNC2=O)cs1
 : 2, 3
COc1ccc(C(=O)N2CCC(n3c(C)nc4ccc(F)cc43)CC2)cc1
 : -9, -4
C=CCN(CC(=O)N1CCc2sccc2C1COc1cccc(F)c1)C(=O)NC(C)(C)C (stereo not drawn)
 : 0, -2
CCOC(=O)c1cc(-c2ccc(CC)cc2)n(C2CCN(C(=O)c3cccc(OC)c3)CC2)n1
 : 18, 29
N#CCCN(CCN1CCOCC1)Cc1cc2ccccc2nc1Cl
 : 7, 10
NC(=O)c1cnc(N2CC=C(c3cccc4ccccc34)CC2)c(Cl)c1
 : 1, 4
CC(=O)O[C@@H]1[C@@H]2C(=O)[C@@]3(C)[C@H](OC(C)=O)[C@H]4[C@@H](OC(=O)c5ccccc5)[C@@H](C)C[C@]4(OC(C)=O)C(=O)[C@@]3(C)[C@@H]2CC1(C)C
 : -13, -9
Cc1ccc(S(=O)(=O)C2C(=O)N(C)C3(C)CC2c2ccccc2O3)cc1C (stereo not drawn)
 : 12, 8
Cc1ccc(NC(=O)CSc2c(C)cnc3c2c(=O)n(C)c(=O)n3C)c(C)c1
 : 11, 7
CC(Sc1nnc(-c2ccc[nH]2)o1)c1nc(N)nc(N(C)C)n1 (stereo not drawn)
 : 13, -1
CCOc1ccc2nc(N3CCCN(Cc4cc(OC)c5c(c4)OCO5)CC3)nc(C)c2c1
 : 5, 9
O=c1[nH]c2ccc(S(=O)(=O)NCc3ccc4c(c3)OCO4)cc2[nH]1
 : 10, 16
CN1CCC2(CC1)CN(C(=O)c1ccccc1-c1ccccc1)CCCN2C
 : 4, 8
Cc1cc(O)c(CN2CCC3(CC2)OCCO3)cc1C
 : 1, 1
CCCN(C/C=C/c1ccccc1)C(=O)c1cc(CC)nn1C
 : 2, 3

Exported bar-delimited: part of the list above
Molecule | NPYLR7 ag max-min | NPYLR7 ag
CCOC(=O)c1cc(-c2ccc(CC)cc2)n(C2CCN(C(=O)c3cccc(OC)c3)CC2)n1 | 18 | 29
N#CCCN(CCN1CCOCC1)Cc1cc2ccccc2nc1Cl | 7 | 10
NC(=O)c1cnc(N2CC=C(c3cccc4ccccc34)CC2)c(Cl)c1 | 1 | 4
CC(=O)O[C@@H]1[C@@H]2C(=O)[C@@]3(C)[C@H](OC(C)=O)[C@H]4[C@@H](OC(=O)c5ccccc5)[C@@H](C)C[C@]4(OC(C)=O)C(=O)[C@@]3(C)[C@@H]2CC1(C)C | -13 | -9
Cc1ccc(S(=O)(=O)C2C(=O)N(C)C3(C)CC2c2ccccc2O3)cc1C (stereo not drawn) | 12 | 8
Cc1ccc(NC(=O)CSc2c(C)cnc3c2c(=O)n(C)c(=O)n3C)c(C)c1 | 11 | 7
CC(Sc1nnc(-c2ccc[nH]2)o1)c1nc(N)nc(N(C)C)n1 (stereo not drawn) | 13 | -1

(continued)
Values in the order: NPYLR7 ag max-min, NPYLR7 ag
C=C(C)Cn1c(C(=O)N2CCN(C(=O)COCc3ccccc3)C(C)C2)cc2ccoc21 (stereo not drawn)
 : 6, 5
O=C(NC1CC(=O)N(Cc2ccccc2Cl)C1)c1cn2ccsc2n1 (stereo not drawn)
 : 4, 5
CCCn1c(=O)c2c(nc3n2CCCN3Cc2ccccc2)n(C)c1=O
 : -4, -2
O=C(Nc1cc(Cl)ccc1N1CCCC1)c1ccc(Br)o1
 : 13, 12
O=c1c(S(=O)(=O)c2ccc(Cl)cc2)c[nH]c2cc3c(cc12)OCCO3
 : 4, 6
CC(=O)Nc1ccc(S(=O)(=O)Nc2ccc([N+](=O)[O-])cc2)cc1
 : -8&-9, -1&-6
CCOC(=O)C(C#N)=Cc1cn(-c2ccccc2)nc1-c1ccc(OC)c([N+](=O)[O-])c1
 : -7, -3
Cc1nonc1CN(C)C(=O)c1cnn(Cc2ccccc2)c1
 : 2, 13
N#CCCN(CCN(CCC#N)C(=O)NC1CCCCC1)C(=O)NC1CCCCC1
 : 5, 7
COc1ccc2c(c1)C(COCc1ccc(C(=O)O)cc1)=CC(C)(C)O2
 : 13, 4
Cc1cc(C(=O)N2CCN(c3ccncc3)CC2)on1
 : 6, 1
CCN(CCn1cccn1)C(=O)c1cc(Cn2cnc3ccccc32)[nH]n1
 : 3, 4
CCn1nnc2c(SCC(=O)N3CCCC3)ncnc21
 : -1, 2
O=C1NC(CCc2ccccc2)(C2CCNCC2)C(=O)N1CCO (stereo not drawn)
 : -1, 1
CCc1nc2cc(NC(=O)C3(C)CCN3CC(C)C)ccc2o1 (stereo not drawn)
 : 5, 6
Cc1n[nH]c(C)c1NC(=O)C1CC(c2cc(F)ccc2F)=NO1 (stereo not drawn)
 : 3, 5
CCOC(=O)C(c1cc(OC)ccc1OC)C1C=CC(NS(=O)(=O)c2cc(C(F)(F)F)cc(C(F)(F)F)c2)C1 (stereo not drawn)
 : 4, 4
Cc1noc(-c2cccnc2NCC2CCOC2C(C)(C)C)n1 (stereo not drawn)
 : -22, -22
CC(CC(=O)Nc1ncn[nH]1)c1ccccc1C(F)(F)F (stereo not drawn)
 : -3, -1
CC(=O)c1c(O)cc(=O)oc1-c1ccc(Cl)cc1
 : -7, -5
C/C(=N/N=C1\NC(=O)C(CC(=O)Nc2cccc(C)c2C)S1)c1ccc(Cl)cc1 (stereo not drawn)
 : 2, 5
Cc1c(C(=O)N2CCC(Cc3ccccc3)CC2)cnc2c(-c3cccc(C(F)(F)F)c3)cnn12
 : 26, 27
O=C(CS(=O)(=O)c1ccccn1)Nc1ccc(Cl)cc1
 : 0, 0
COCCN(CCOC)C(=O)c1cc2c(=O)n3ccccc3nc2n1C
 : 1&-1, 2&1
COc1cc(C)sc1C(=O)N[C@@H]1C=C[C@H](CO)C1
 : -1, -2
Fc1ccccc1Nc1nc(CN2CCOCC2)cs1
 : 2, 10
CCc1nc2n(n1)C(=O)C(C(c1ccc(F)c(F)c1)N1CCCCC1)S2 (stereo not drawn)
 : 23, -2
Nn1c(=S)[nH]nc(-c2cccs2)c1=O
 : 12, 8
C=CCCCCc1nc2ccccc2c(=O)n1N
 : 3, 8
CCN(CC)C(=O)Oc1ccc2c(ccn2Cc2cccc(Cl)c2F)c1-c1ccc(OC)c(OC)c1
 : 9, 11

Single records, from the list above.
CCN(CC)C(=O)Oc1ccc2c(ccn2Cc2cccc(Cl)c2F)c1-c1ccc(OC)c(OC)c1 is entered as NPYLR7 ag max-min = 9; NPYLR7 ag = 11
COCCN(CCOC)C(=O)c1cc2c(=O)n3ccccc3nc2n1C is entered as NPYLR7 ag max-min = 1&-1; NPYLR7 ag = 2&1

(continued)
Values in the order: NPYLR7 ag max-min, NPYLR7 ag
CC1(C(=O)N2c3ccccc3CCC2C(=O)Nc2ccccc2F)CC1(Cl)Cl (stereo not drawn)
 : 2, 3
NC(=O)C1CCN(Cc2cc(=O)oc3cc(-c4ccccc4)c(O)cc23)CC1
 : -2, 0
Cc1c(Cl)c([N+](=O)[O-])nn1CC(=O)Nc1cc(-c2ccc(Cl)cc2)nn1C
 : 16, 13
CC(C)(CN1CCCC1c1ccccn1)N1CCOCC1 (stereo not drawn)
 : 20, 0
COc1cccc(CO[C@]2(C(=O)NCC3CCCO3)CC(OCc3c(F)cccc3F)[C@@H]3OC(C)(C)O[C@@H]3C2)c1 (stereo partly drawn)
 : 7, 16
C=Cc1cccc(CN(C)CCC(=O)NC)c1
 : -15, -2
CC(=O)N1CCN(C(=O)c2c(C3CC3)nn(-c3cccc(F)c3)c2C)CC1
 : 32, 26
Oc1c(CN2CCCC2)cc(Cl)c2cccnc12
 : 14, 8
O=C(NN1C(=O)C2C3C=CC(C4CC34)C2C1=O)c1ccc(Cl)cc1 (stereo not drawn)
 : 4, 5
CCn1c(CCC(=O)Nc2nc(C)c(C)s2)nc2cc(S(=O)(=O)N3CCOCC3)ccc21
 : 5, 2
Cc1ccc2nc(-c3ccccc3F)c(NC(C)(C)CC(C)(C)C)n2c1
 : -4, -7
Nc1nonc1-c1nc2ccccc2n1Cc1ccccn1
 : -13, -11
O=C(c1ccco1)N(Cc1c(-c2ccccc2)noc1N1CCCCC1)CC1CC1
 : 10, 9
O=C(NCCNC(=O)C1CCN(C(=O)c2cccc([N+](=O)[O-])c2)CC1)c1ccccc1
 : 14, 12
Cc1nc(CN)cc(N2CCC(O)(c3cccc(C(F)(F)F)c3)CC2)n1
 : 10, 10
Cc1cc(C)c(C#N)c(Nc2cccc(Cl)c2)n1
 : -6, -3
O=C(NCCn1cccc1)c1cccc(NC(=O)C2CCCCC2)c1
 : -6, -5
Cc1cn2c3c(=O)n(CC=Cc4ccccc4)c(=O)n(C)c3nc2n1C1CCCC1
 : 12, 8
COCCn1ccc2nc3ccn(CCN4CCOCC4)c(=O)c3cc2c1=O
 : 7, 2
CCOC(=O)C(=O)N(C)c1c(CC)nc2c(OCc3cccc(Cl)c3)cccn12
 : -1, -1
NS(=O)(=O)c1ccc(NS(=O)(=O)c2ccccc2)cc1
 : 6, 9
COCCCN=C(NC(=O)c1cccc(OC)c1)OC(C)C
 : -6, -10
CCCOc1cccn2c(N(C)C(=O)C3CCCCC3)c(C)nc12
 : 4, 13
Cc1ccc(NC(=O)Nc2ccc(N3CCCC3)c(C(=O)NCc3ccc(F)cc3)c2)cc1
 : 3, 4
C=CCN1C(=O)NC(c2cccc(OCc3ccccc3)c2)C2=C1CN(CC1CCCO1)C2=O (stereo not drawn)
 : 9, 5
CCOc1ccc(N=C(NC#N)SCc2ccccc2Cl)cc1
 : 12, 12
O=S(=O)(Cc1ccc(Cl)cc1)c1ccc(N2CCN(c3ccc(F)cc3)CC2)nn1
 : -6, -1
N#Cc1nc(COc2ccc(Cl)cc2)oc1N1CCCC1
 : -1, 2
Cc1cc(C)n(-c2cc(NCCNC(=O)Nc3cccc(C)c3C)ncn2)n1
 : -15, -7
O=C(NCCN1CCOCC1)c1scc2c1OCCO2
 : -2, -1
Cc1ccc(S(=O)(=O)N=C(c2ccccc2)N2CCOCC2)c(C)c1
 : 6, 6
O=S(=O)(c1cccc(CN(Cc2ccccc2F)C2CC2)c1)N1CCOCC1
 : 2, 2
O=C(Nc1nnc(SCC2CC2)s1)c1cccs1
 : 8, -2
CCOC(=O)c1ccc2c(c1)nc(SCc1cc(Cl)ccc1Cl)n2CCOC
 : 3, 3
Cc1ccccc1Cn1cnc2c(cnn2CCNC(=O)Cc2ccccc2)c1=O
 : -9, -2
CCC(C)(C)NC(=O)Cn1c(-c2ccoc2)nc(C)c1C
 : 6, 8

Screening data: PubChem BioAssay, Fisher Drug Discovery Resource Center
